# Insulin prom inh – TRM-6 insulin promoter activity inhibition; TRM-6 cells (human fetal islet line), insulin promoter-eGFP reporter, imaging; reporter expression induced with tamoxifen; inhibition, % at 2 µM; 130,000 tested, 0.9% active;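 active = inhibition above the mean plus 3 SD, with well images judged a real hit on visual review, cut at about 60% in these data, passing the limit was not always enough; inconclusive = inhibition over the cutoff but images rejected on review; inactive = inhibition not above the cutoff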
# RGS16-Gao – modulates binding between human RGS16 and Galphao; O15492+P09471; bead-based flow cytometry RGS16-Galphao binding, fluorescence; actives lie on both sides; binding response (% of control), % at 10 µM; 220,000 tested, 0.38% active; AID 1441;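 active = below 25% or above 175%, edge rows of some plates excepted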;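 note: Galphao activated by GDP with aluminum fluoride before binding; 100% = wells without compound and 0% = beads without RGS; some results beyond the cut were filed as inactive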
# PKD1 kinase inh – PKD1 (human) kinase inhibition; Q15139; PKD1 kinase fluorescence polarization assay; inhibition, %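 (about 10 µM by stock and volumes)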; 200,000 tested, 0.056% active; AID 797;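 active = inhibition of 50% or more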;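 note: controls were vehicle for no effect and a reference inhibitor for full effect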
# Target sequence (Q15139 whole entry, looked up): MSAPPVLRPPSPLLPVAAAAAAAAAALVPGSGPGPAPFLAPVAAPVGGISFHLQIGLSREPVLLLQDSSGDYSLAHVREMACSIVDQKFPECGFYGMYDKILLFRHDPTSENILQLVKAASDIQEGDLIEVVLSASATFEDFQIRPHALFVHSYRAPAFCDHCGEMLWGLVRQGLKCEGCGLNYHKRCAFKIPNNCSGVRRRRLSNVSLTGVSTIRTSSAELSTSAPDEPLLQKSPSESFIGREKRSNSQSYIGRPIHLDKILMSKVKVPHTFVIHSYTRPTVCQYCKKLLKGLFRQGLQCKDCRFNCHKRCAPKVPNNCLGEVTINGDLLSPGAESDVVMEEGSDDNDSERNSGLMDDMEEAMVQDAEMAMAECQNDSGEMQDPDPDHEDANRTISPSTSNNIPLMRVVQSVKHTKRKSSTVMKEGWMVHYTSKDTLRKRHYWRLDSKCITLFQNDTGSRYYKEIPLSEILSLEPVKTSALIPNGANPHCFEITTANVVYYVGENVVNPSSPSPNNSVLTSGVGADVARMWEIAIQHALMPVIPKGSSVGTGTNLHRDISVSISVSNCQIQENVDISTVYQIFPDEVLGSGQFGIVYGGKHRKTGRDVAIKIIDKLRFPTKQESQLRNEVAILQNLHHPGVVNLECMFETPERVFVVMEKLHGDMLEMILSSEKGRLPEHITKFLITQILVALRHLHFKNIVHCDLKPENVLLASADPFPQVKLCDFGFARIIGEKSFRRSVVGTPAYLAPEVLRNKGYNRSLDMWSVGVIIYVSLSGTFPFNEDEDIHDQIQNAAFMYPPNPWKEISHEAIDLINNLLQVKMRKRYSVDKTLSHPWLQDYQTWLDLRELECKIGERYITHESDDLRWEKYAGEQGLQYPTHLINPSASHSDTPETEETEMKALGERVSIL
# GALR2 agonist – agonists of human galanin receptor 2 (GALR2); O43603; GALR2-expressing cells, agonist activation read-out; activation, %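 (tested at 5 µM)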; 140,000 tested, 0.48% active;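 active = above mean plus 3 SD of all compounds, about 5% in these data, not always enough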;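 note: 0% = vehicle buffer wells and 100% = reference agonist at full effect; tested in CHO reporter cells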
# HSV replic up – increases HSV replication in cells. HSV replication augmentation in cells, fold increase. maximum fold increase. 220,000 tested, 0.005% active. AID 1956;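 active = peak rise of 1.5-fold or more in the series; inconclusive = self-fluorescent or not available for retest; tested in PC3 cells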;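 note: first round at 10 µM; read as green reporter fluorescence; hits show the peak of a series up to 25 µM; 1 = signal of infected wells without compound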
# Insulin prom inh cell count – recorded beside Insulin prom inh, whose call it bears; normalized cell count, %; measured here: cell count, toxicity; reference of the scale not given here;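 cells exposed to compound for 48 h; stained nuclei by imaging scaled within each plate; lower means fewer cells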
# HSV replic up primary fold – recorded beside HSV replic up, whose call it bears; fold increase; compound at 10 µM; measured here: primary screen fold increase 10 uM; tested in PC3 cells;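 GFP signal in the first replicate; 1 = infected wells without compound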
# An asterisk follows results filed as active; i = inactive; ? = inconclusive; . = no result given.
SMILES,Insulin prom inh,Insulin prom inh cell count,RGS16-Gao,PKD1 kinase inh,GALR2 agonist,HSV replic up,HSV replic up primary fold
O=C(Nc1ccc2c(c1)OCO2)c1cnn2c(C(F)(F)F)cc(-c3ccco3)nc12,-50.0,135.2,96.9,4.2,0.7,i,0.94
COc1cc(Cl)c(S(=O)(=O)NCc2cccnc2)cc1Cl,.,.,94.0,12.4,-1.6,i,1.14
O=C(C1=NNCC1c1ccccc1)C1OC1c1ccccc1 (centres undefined),.,.,101.7,.,.,i,0.93
CCOc1cccc(C2C(C(=O)c3ccc(C)o3)=C(O)C(=O)N2c2nccs2)c1 (centres undefined),.,.,97.6,87.5*,0.0,?,.
Nn1c(-c2cccs2)nc2sc3c(c2c1=O)CCCC3,15.2,80.9,100.2,9.0,0.9,i,1.04
CC1CCCN(c2ccc(C(=O)NCCc3ccccc3)cn2)C1 (centres undefined),.,.,111.7,-1.6,-0.2,i,0.98
CCOC(=O)CC1C(=O)NCCN1S(=O)(=O)c1cc(Cl)c(Cl)cc1Cl (centres undefined),-16.7,101.6,95.3,4.4,-2.1,i,0.83
CN1c2ccccc2C(C)(C)[C@]12C=Cc1cc(O)ccc1O2,-125.0,79.0,86.4,-6.4,-1.5,.,.
O=C(Cc1ccc(-c2ccccc2)cc1)N1CCOCC1,-27.6,96.0,108.8,-2.6,-2.7,i,1.01
Cc1ccc(SCC(=O)NCC(C)C)cc1,.,.,93.7,-8.2,-0.3,i,1.05
Cc1[nH]ccc2c1[nH]c1cc(=O)ccc12,.,.,100.2,.,.,i,0.92
C=CCn1c(Cc2ccccc2)nnc1SCc1nc2ccccc2c(=O)[nH]1,.,.,104.2,-8.0,.,i,1.06
COC(=O)Nc1ccccc1C(=O)N1CCN(c2ccc(C)cc2)CC1,-16.7,132.3,105.8,-14.2,1.1,i,0.87
COc1ccc(C2=NO[C@@H]3[C@@H]4C[C@@H]([C@H]5C(=O)N(C)C(=O)[C@@H]45)[C@H]23)c(OC)c1,.,.,98.2,.,.,i,1.2
CCCCc1cn([C@@H](CCCCN)C(=O)N2CCNCC2)nn1,.,.,96.4,-2.4,.,i,1.06
CC(C)Cn1c(N)cc(=O)n(C)c1=O,.,.,101.0,0.9,.,i,0.98
CSc1nc2nc(-c3ccccc3)cc(=O)n2[nH]1,-2.7,36.4,101.0,-8.1,-0.3,i,0.96
CC(=O)N1CCCc2cc(S(=O)(=O)CCC(=O)N3CCN(c4cccc(C)c4)C(C)C3)ccc21 (centres undefined),.,.,84.7,-6.8,-0.6,.,.
Nc1nc2ccccc2n1/N=C/c1ccc(Br)cc1,31.2,108.2,145.7,20.1,-2.8,i,0.88
O=C(NCCc1ccccc1)c1ccc2nc(-c3ccco3)c(-c3ccco3)nc2c1,-21.1,121.5,48.7,1.1,0.2,i,1.05

# Continued; the last 2 above are carried over.
SMILES,Insulin prom inh,Insulin prom inh cell count,RGS16-Gao,PKD1 kinase inh,GALR2 agonist,HSV replic up,HSV replic up primary fold
Nc1nc2ccccc2n1/N=C/c1ccc(Br)cc1,31.2,108.2,145.7,20.1,-2.8,i,0.88
O=C(NCCc1ccccc1)c1ccc2nc(-c3ccco3)c(-c3ccco3)nc2c1,-21.1,121.5,48.7,1.1,0.2,i,1.05
CCOC(=O)c1cc(-c2ccc(Cl)cc2)nc2c1c(=O)[nH]c(=O)n2CCOC,11.1,142.5,98.9,12.9,.,i,1.01
Cc1ccsc1/C=N\Nc1cn[nH]c(=O)c1Cl,20.0,89.8,87.4,-2.0,.,i,0.95
COC(=O)c1cn(CC(=O)Nc2ccc(F)cc2)c2ccccc12,-30.8,92.0,95.5,0.7,.,i,0.89
Clc1ccc(Cn2ncc3c(NCCN4CCOCC4)ncnc32)cc1,-16.3,59.2,99.2,-10.4,-1.2,i,0.93
O=[N+]([O-])c1ccccc1OCC(O)CNC1CCCC1 (centres undefined),.,.,106.7,.,.,i,0.95
COc1cc(C(=O)OCCC(C)C)cc(OC)c1O,.,.,98.1,.,.,i,0.87
Cn1c(-c2ccc(C=O)s2)nc2ccccc21,-13.0,133.1,108.0,-9.3,-1.4,i,0.91
O=C(CN1CCOc2ccccc21)N1CCCC1,30.0,127.8,98.8,1.6,-0.5,.,.
COc1ccc(C(=O)Nc2cc(-c3nn4c(C)nnc4s3)ccc2C)cc1,.,.,84.1,2.9,-3.4,i,0.92
CC(=O)Nc1cccc(NC(=O)C2CCCN2C(=O)Nc2ccccc2C)c1 (centres undefined),42.3,132.9,94.9,-6.5,-2.2,i,0.86
Cc1cc2cc(C(c3nnnn3CC3CCCO3)N3CCCc4ccccc43)c(=O)[nH]c2cc1C (centres undefined),.,.,107.0,3.2,-0.6,i,1.05
CN(Cc1ccccc1)C(=O)C1CCC(CNS(=O)(=O)c2cccc3cccnc23)CC1 (centres undefined),.,.,97.8,.,.,i,0.91
O=C(c1ccc2c(c1)OCO2)N1CCN(c2ncccn2)CC1,3.1,84.3,114.5,-1.1,-1.1,i,0.98
Cc1cccc(C)c1NC(=O)C(NC(=O)c1ccccn1)c1ccccc1[N+](=O)[O-] (centres undefined),-39.7,109.9,100.0,-2.1,-0.7,i,0.92
Cn1cccc1CC(=O)N/N=C/c1ccc(Cl)c([N+](=O)[O-])c1,.,.,96.8,.,.,i,0.8
COCCNC(=S)Nc1ccc([N+](=O)[O-])cc1C,.,.,100.4,-5.0,.,i,1.03
CC1CN(CC(=O)c2c(N)n(Cc3ccccc3)c(=O)n(C)c2=O)CC(C)O1 (centres undefined),21.9,52.4,125.6,2.1,44.1*,i,0.91
Nc1c(C(=O)c2ccccc2)sc2c1c(=O)[nH]c(=O)n2-c1ccccc1,.,.,98.1,-2.9,2.6,i,0.86
Cc1nc(NC(=O)c2ccc(F)cc2)sc1C(=O)Nc1ccc2c(c1)CCC2,56.7,104.8,98.4,-4.5,-1.2,i,0.81
CCOC(=O)c1cc2c(=O)n3ccccc3nc2n(Cc2ccco2)c1=NC(=O)c1cccnc1,0.0,50.8,95.6,-3.1,-0.7,i,0.71

# Single records, from the list above. Order of values: Insulin prom inh | Insulin prom inh cell count | RGS16-Gao | PKD1 kinase inh | GALR2 agonist | HSV replic up | HSV replic up primary fold
# Shown for Clc1ccc(Cn2ncc3c(NCCN4CCOCC4)ncnc32)cc1 → -16.3 | 59.2 | 99.2 | -10.4 | -1.2 | i | 0.93
# Shown for CCOC(=O)c1cc2c(=O)n3ccccc3nc2n(Cc2ccco2)c1=NC(=O)c1cccnc1 → 0.0 | 50.8 | 95.6 | -3.1 | -0.7 | i | 0.71
# Shown for COc1ccc(C(=O)Nc2cc(-c3nn4c(C)nnc4s3)ccc2C)cc1 → . | . | 84.1 | 2.9 | -3.4 | i | 0.92
# Shown for COC(=O)c1cn(CC(=O)Nc2ccc(F)cc2)c2ccccc12 → -30.8 | 92.0 | 95.5 | 0.7 | . | i | 0.89
# Shown for CC1CN(CC(=O)c2c(N)n(Cc3ccccc3)c(=O)n(C)c2=O)CC(C)O1 (centres undefined) → 21.9 | 52.4 | 125.6 | 2.1 | 44.1* | i | 0.91

# (more compounds)
SMILES,Insulin prom inh,Insulin prom inh cell count,RGS16-Gao,PKD1 kinase inh,GALR2 agonist,HSV replic up,HSV replic up primary fold
COc1ccccc1OCC(=O)OCC(=O)Nc1sccc1C(N)=O,18.5,99.1,109.5,-4.8,-0.2,i,1.04
Cc1ccc(/C=c2/sc3nnc(-c4ccccc4Cl)n3c2=O)o1,-29.2,105.5,104.2,-2.0,-2.3,i,1.09
Cc1cc(/C([O-])=C(/C(=S)Nc2ccc(F)cc2)[n+]2ccccc2)c(C)n1-c1ccc(F)cc1,-12.2,66.4,100.3,4.0,-1.4,i,1.09
CN(C)c1ccnc2sc3c(=O)n(Cc4ccccc4)cnc3c12,66.7,106.5,93.2,-11.5,-1.6,i,0.73
Cc1ccnc(NS(=O)(=O)Cc2ccccc2)c1,13.5,106.4,105.2,-10.4,-2.9,i,0.97
COc1ccccc1NC(C)=O,-34.6,86.9,-1.1,6.4,-0.5,i,0.97
CC(=O)NC(=O)Nc1sc(=S)n(C)c1C,-11.8,79.1,96.6,-0.3,-2.0,i,0.983
Cc1ccccc1-n1c(SCC(=O)N/N=C/c2sccc2C)nc2ccccc2c1=O,27.8,114.3,110.7,-4.5,-0.7,i,0.62
CC(=O)c1ccccc1NC(=O)CSc1nnc2ccccn12,-15.6,46.6,90.3,0.7,-1.2,.,.
Cc1nnc(NC(=O)c2oc3c(ccc4ccccc43)c2C)s1,-9.3,147.2,98.3,1.3,-1.9,i,0.87
Cc1nc2ccc(NC(=O)N3CCC(c4ccccc4)C3)cc2nc1C (centres undefined),-10.8,115.5,106.4,-6.6,-1.7,i,0.94
Cc1ccc(C(C(=O)NCc2ccccc2)N(Cc2cccs2)C(=O)c2ccc3c(c2)OCCO3)cc1 (centres undefined),11.8,117.3,90.2,-10.4,-1.1,i,0.78
COc1ccc(/C=C/C(=O)c2cc(Br)ccc2O)cc1OC,.,.,104.7,7.5,.,i,0.73
CCOC(=O)c1c(CN2CCN(c3ccccc3)CC2)oc2ccc(O)cc12,.,.,111.2,-13.0,-1.0,i,0.77
Cc1cc(N2CC34C=CC(O3)C(C(=O)O)C4C2=O)no1 (centres undefined),-50.0,119.0,114.9,1.1,-3.0,i,0.94
CN(C)/C=C/C(=O)c1ccccc1F,19.4,75.0,97.9,4.7,-1.2,i,1.03
COc1cccc(OC)c1C(=O)N1CCN(S(=O)(=O)c2ccccc2)CC1,-50.0,214.2,102.4,-6.5,-1.2,i,0.83
CCOC(=O)C1CCN(S(=O)(=O)c2ccc(OC)c(Cl)c2Cl)CC1,-14.3,100.0,98.2,-2.1,-2.6,i,0.87
CCCNC(=O)Cn1nc(C(F)(F)F)cc1C,33.3,124.5,99.5,2.0,.,i,1.07
O=C(O)C(Sc1ccncn1)c1ccccc1 (centres undefined),.,.,97.5,-7.5,.,i,1.05
COc1ccc(CN2CCN(C(=O)CC(C)C)CC2)c(OC)c1OC,-23.1,104.0,92.4,-2.7,0.0,i,0.96
COc1cc(C(=O)OC2CSCC2NC(=O)c2ccccc2)cc(OC)c1OC (centres undefined),.,.,100.0,-1.3,.,i,1.03
COc1ccc2cc(C(=O)Nc3ccc(O)cc3)sc(=O)c2c1OC,-7.7,79.7,106.4,10.6,-0.5,i,0.84
COc1ccccc1CNC(=O)/C=C/c1ccc(S(=O)(=O)NCc2ccco2)cc1,-14.3,145.3,115.4,1.0,0.3,i,0.85
O=C(NCc1ccccn1)c1cccn1-c1ncc(C(F)(F)F)cc1Cl,-46.7,76.7,99.0,-0.4,.,i,0.95
S=C(NCc1cccc(Cl)c1)NC1CCCCC1,-35.7,70.4,68.5,-3.8,-2.4,i,0.92
Cc1ccc(/C=C/c2nnc(-c3cccs3)o2)cc1,.,.,96.8,7.8,-1.7,i,0.94
COc1ccc(/C=N\NC(=O)c2cc(OCC(F)(F)F)ccc2OCC(F)(F)F)cc1,.,.,92.9,0.5,-0.4,i,0.8
Cc1ccc(NC(=O)c2cc(-c3ccccc3)nn2-c2ccccc2)cc1,-3.6,95.4,100.0,-5.6,-1.0,i,0.97
CC(C)CC(=O)NC(Nc1ccccc1F)C(Cl)(Cl)Cl (centres undefined),.,.,97.9,-1.2,-1.2,.,.
CCOC(=O)c1ccc(NC(=O)COc2ccccc2CNC2CCCC2)cc1,.,.,97.5,6.9,.,i,0.72
CC(C)(C)NS(=O)(=O)c1ccc(NC(=O)C2CCCCC2)cc1,.,.,103.6,-9.2,.,i,0.91
Cc1nn(-c2nc3ccccc3s2)c(C)c1Oc1ccccc1O,.,.,108.8,-8.6,1.7,i,0.84
C=CCN(CC=C)CCOc1ccc(C)cc1[N+](=O)[O-],.,.,102.9,0.0,.,i,0.93
C=CCn1c(Sc2ncc([N+](=O)[O-])s2)n[nH]c1=O,.,.,87.9,.,.,i,1.03
O=C(NC1CCCC1)c1ccc(CN2CCOCC2)cc1,-29.0,47.2,98.1,7.5,-1.6,i,1.02
CCC(C)(C)C(=O)Nc1cc([N+](=O)[O-])ccc1Cl,18.8,132.2,101.0,-4.2,0.2,i,1.03
COc1ccc(C(C)(C)C)cc1NC(=O)c1c(C)noc1C,-25.0,75.4,103.1,-7.9,-0.5,i,0.97
O=C(CCCCCn1c(SCc2ccncc2)nc2ccccc2c1=O)NCc1ccco1,36.4,124.6,99.0,-3.8,-1.1,i,0.65
O=C(CCCN1C(=O)c2ccccc2C1=O)Nc1sc2c(c1C(=O)NCc1ccco1)CCC2,-2.6,162.4,96.2,-5.0,0.5,i,1.05
CCC(CC)=NNc1cccc([N+](=O)[O-])c1,.,.,101.3,0.8,0.0,i,0.97
